HIV Env fusion: HIV envelope-mediated fusion inhibition. HeLa-JRFL Env/CEM21 cell fusion, luciferase. inhibition, % at 12.3 µM. actives 1.1% (n = 360,000). AID 651610;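 active means mean replicate inhibition score of at least 50 and every replicate individually at or above 50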;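 further: 0% = plate neutral controls and 100% = maraviroc near 300 nM; one replicate is shown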
PABP FP inh: blocks human PABP binding to poly(A) RNA; P11940; fluorescence polarization; inhibition, % at 35 µM; actives 1% (n = 290,000);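 active means 50% or more with normal probe brightness, or confirmed in later tests; about a fifth of its hits are not listed in these tables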;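 further: calls also rest on retests at 20 µM and on dose response follow-up; controls were probe without protein and protein plus probe with vehicle; some compounds called inactive have numbers as strong as hits; many hits fall short of the cut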
Target sequence (P11940 whole entry, looked up): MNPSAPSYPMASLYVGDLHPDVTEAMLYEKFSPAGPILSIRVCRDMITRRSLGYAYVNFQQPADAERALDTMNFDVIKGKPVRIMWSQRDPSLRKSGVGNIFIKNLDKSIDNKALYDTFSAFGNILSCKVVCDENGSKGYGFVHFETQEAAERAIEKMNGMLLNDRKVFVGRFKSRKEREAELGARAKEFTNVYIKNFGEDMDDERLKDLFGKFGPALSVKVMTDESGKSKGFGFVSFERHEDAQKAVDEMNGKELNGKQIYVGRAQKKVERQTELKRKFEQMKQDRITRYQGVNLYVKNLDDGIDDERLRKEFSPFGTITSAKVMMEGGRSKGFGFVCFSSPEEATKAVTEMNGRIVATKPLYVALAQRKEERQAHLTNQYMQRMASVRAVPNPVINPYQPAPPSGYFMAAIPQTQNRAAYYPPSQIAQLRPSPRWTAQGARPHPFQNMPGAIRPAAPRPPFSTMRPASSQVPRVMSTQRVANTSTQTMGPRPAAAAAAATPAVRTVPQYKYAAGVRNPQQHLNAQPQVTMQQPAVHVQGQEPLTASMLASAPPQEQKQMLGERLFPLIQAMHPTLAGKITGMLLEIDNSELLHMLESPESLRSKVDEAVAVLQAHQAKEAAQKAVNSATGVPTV
MT1-MMP act inh: blocks activation of human MT1-MMP; HT1080 RFP-PRO-GFP cells, GFP/RFP ratio fluorescence, overnight; percent of plate control window, DMSO zero; actives 0.061% (n = 360,000); P50281; GFP/RFP ratio change, % at 20 µM; AID 651647;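 active means GFP/RFP ratio change of at least 30% with cell ATP level not reduced by more than half and red fluorescence within 50% of control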; further: strong numbers were not always called active
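Assay system – RFP-PRO-GFP reporter HT1080 cells · Compound dosing – single dose of 20 µM compound, 1% DMSO final · Incubation – overnight compound exposure at 37 °C · Measure – GFP/RFP fluorescence ratio · Benchmarks – DMSO wells and RFP-L50D-GFP cells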
eIF4H inh: inhibitors of RNA binding by human eIF4H; eIF4H fluorescence polarization binding assay; AID 2012; actives 0.94% (n = 290,000); inhibition, % at 35 µM; Q15056;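 active means 50% or more with normal probe brightness, or confirmed in later tests; about a fifth of its hits are not listed in these tables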;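 further: calls also rest on retests at 20 µM and on dose response follow-up; 0% = protein and probe with vehicle and 100% = probe without protein; strong numbers were not always called active; many hits fall short of the cut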
Yeast UUG start: yeast start codon fidelity modulation | S. cerevisiae UUG-firefly luciferase reporter, luminescence/redox ratio | AID 602363 | actives 0.13% (n = 350,000) | activity score, % at 18.7 µM;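 active means replicate mean at a twofold rise or more, about +100% in these data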;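 further: firefly luciferase made from a UUG start codon reports start codon fidelity; reporter light over untreated wells divided by growth signal over untreated wells; some hits fall short of that in this replicate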
Rce1 inhib: yeast Ras-converting enzyme inhibition. yeast membranes, quenched prenylated peptide cleavage fluorescence. AID 2563. actives 0.27% (n = 290,000). calls only. Q03530;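 active means fall in fluorescence gain of 50% or more versus controls, with final raw signal at or below 3038400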;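 further: plate controls were neutral control wells for no effect and wells lacking membranes for full effect; tested at 10 µM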
CSC inhib: cancer stem cell inhibition; actives 1.1% (n = 300,000); inhibition, % at 7.5 µM; cancer stem cell-like cells viability, luminescence; AID 2717;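 active means mean at 75% or more and at least half the replicates too; tested in HMLE shEcad cells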;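 further: 0% = median of negative and 100% = median of positive control wells; the first replicate is given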
MT1-MMP act inh RFP: recorded beside MT1-MMP act inh, whose call it bears; RFP signal change, %; measured here: RFP expression control read;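 0 = vehicle wells; hits needed this value within 50% of zero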
Starred values were filed as active, the others as inactive; i = inactive; / = no result given.

SMILES | HIV Env fusion | PABP FP inh | MT1-MMP act inh | MT1-MMP act inh RFP | eIF4H inh | Yeast UUG start | Rce1 inhib | CSC inhib
NC(=O)CC[C@@H]1NC(=O)[C@@H]2CCCN2C(=O)c2cc([N+](=O)[O-])cc(I)c2NCCCC[C@@H](C(=O)NC(CC(=O)O)C(N)=O)NC1=O (stereo partly specified) | / | -5 | 2 | 4 | 9 | 2 | i | -4
COc1cc(/C=N/NC(=O)c2cccnc2)ccc1OC(=O)c1ccco1 | -3 | 0 | 5 | -5 | -8 | -1 | i | 6
COc1ccccc1-c1cc2c(c3c1ccn3C)C1CCC2C1 (stereo unspecified) | 4 | / | 5 | 7 | / | -7 | / | /
CC1(C)CC(=O)C2=C(C1)OC1=C(C(=O)CC(C)(C)C1)C2c1ccc(O)c([N+](=O)[O-])c1 | -11 | 6 | -2 | 1 | -2 | / | i | -1
COc1ccc(C(=O)N2CCN(Cc3ccc4c(c3)OCO4)CC2)cc1[N+](=O)[O-] | 46 | -19 | -2 | -18 | 3 | -1 | i | 14
Cc1ccc(-c2csc(-c3cc(C)on3)n2)cc1 | -1 | -5 | -3 | -5 | -5 | / | i | 0
COc1cccc(NC(=O)Nc2nnc(Cc3ccccc3)s2)c1 | 1 | -6 | 5 | -6 | 7 | -28 | i | 53
O=C(NCC(c1ccco1)N1CCOCC1)c1cccc(Cl)c1 (stereo unspecified) | / | / | -3 | 1 | / | -15 | i | 4
COc1ccc(CCNC(=O)C2CC3Cn4c(nc5cc6ccccc6cc54)C3N2C)cc1 (stereo unspecified) | -6 | 4 | 10 | -12 | 2 | -8 | i | -9
Cc1ccc(C(=O)CSC2=C(C#N)C(c3ccco3)C3=C(CCCC3=O)N2)cc1 (stereo unspecified) | -180 | 19 | -15 | -20 | 21 | -4 | i | 25
CN1CCN(c2ccc(-c3ccnn3C(=O)Nc3cccc(C(F)(F)F)c3)cc2)CC1 | 3 | 10 | 2 | 2 | -14 | / | i | 19
O=c1c2ccsc2ncn1Cc1ccc(Cl)cc1 | / | -8 | 3 | 9 | -6 | -7 | i | 5
O=C(CCc1nc(-c2ccccc2)no1)N1CCCC1 | / | -3 | 2 | 1 | 4 | 0 | i | -16
Cn1c(=O)n(C/C=C/c2ccccc2)c(=O)c2c1nc1n2CCCN1Cc1ccccc1 | 31 | -6 | 11 | -10 | -2 | -7 | i | -7
COCCN1CN(S(=O)(=O)c2cccc(Cl)c2)c2nc3ccccc3nc21 | -18 | 14 | -1 | 2 | -21 | -6 | i | -12
COc1ccccc1NC(=O)/C=C1\SCC(=O)N1C | -4 | -1 | 2 | 0 | 0 | / | i | -3
COc1ccc(NS(=O)(=O)c2cccs2)c(OC)c1 | / | 1 | 4 | -4 | 0 | -4 | i | -4
CC(C)(C)N(Cc1ccccc1)C(=O)c1ccc(Br)o1 | 19 | -9 | -8 | -8 | -3 | 4 | i | 71
O=C(COc1ccc(Br)cc1Cl)NC(=S)N1CCc2ccccc21 | -16 | 2 | 2 | 5 | 0 | -22 | i | 70
CCCOc1ccc(-c2c(C(=O)N/N=C/C3CCCCC3)nnn2-c2nonc2N)cc1 | -10 | -16 | 0 | 3 | 3 | -14 | i | -7
Cc1[nH]c2c(Cl)cccc2c(=O)c1CN1CCCC1 | / | 10 | 0 | 1 | -1 | -18 | i | -11
Nn1c(SCc2nc3ccccn3c2Br)nnc1-c1cccnc1 | / | 4 | 0 | 1 | -6 | -2 | i | -1
COc1ccc(CNC(=O)c2ccc(-n3ccnc3)c3ccoc23)cc1OC | 22 | / | 2 | -3 | / | 177* | / | /
COc1ccc(Br)cc1CN(C)C(C)C(=O)Nc1cc([N+](=O)[O-])ccc1OC (stereo unspecified) | / | 13 | 3 | -5 | -2 | / | i | -14
COc1ccccc1N(C)S(=O)(=O)c1ccc(C(=O)NC2=NCCS2)cc1 | -12 | -4 | -3 | -5 | 0 | -13 | i | -4
CC(C)(C)NC(=O)CSc1nc2ccc(NC(=O)CSc3nnc(N)s3)cc2s1 | / | -1 | -4 | -25 | 2 | / | i | 6
O=C(NCc1ccccc1Cl)C1CCC(CNc2nc(=S)[nH]c3ccccc23)CC1 (stereo unspecified) | 14 | 5 | 7 | -5 | -13 | / | i | 24
NC(=O)C1CCN(C(=O)c2ccc(NC3=NC4CS(=O)(=O)CC4S3)cc2)CC1 (stereo unspecified) | -5 | 4 | 1 | 2 | 12 | -20 | i | -1
CCOC(=O)c1c(C)[nH]c(C(=O)OCC(=O)NC(C)(C)C)c1C | 4 | -9 | 2 | -15 | -15 | / | i | -11
O=C(c1cccs1)N1CCN=C1SCc1ccc(Cl)cc1 | -32 | 1 | 0 | 2 | -3 | / | i | 12
CN(C(=O)COC(=O)/C=C/c1ccccc1[N+](=O)[O-])c1ccccc1 | 3 | -4 | -3 | -3 | 0 | / | i | -7
CCn1[nH]c(=O)c(=Nc2c(C)n(C)n(-c3ccccc3)c2=O)cc1-c1ccc(Cl)cc1 | -81 | 2 | 5 | -3 | -2 | -2 | i | -10
O=C1CCCN1CCCNCC(=O)N1c2ccccc2Sc2ccccc21 | -33 | 11 | 10 | 3 | 4 | -6 | i | 11
NC(=O)c1oc2ccccc2c1NC(=O)Cc1ccccc1 | 12 | 11 | -1 | 1 | 6 | 8 | i | -12
O=c1c2c3c(sc2ncn1/N=C/c1ccc(Br)o1)CCCC3 | / | -4 | 6 | -1 | -2 | -22 | i | 28
CN(Cc1ccccc1)S(=O)(=O)c1cn(C)cn1 | 0 | -5 | 2 | 6 | -4 | / | i | 6
Clc1ccc(Nc2ccc(NCc3ccccc3)nn2)cc1 | 2 | -2 | 10 | 4 | -7 | / | i | 35
COc1ccc(CC(=O)NNC(=O)COc2ccc3ccccc3c2)cc1 | -1 | 4 | 5 | 3 | 12 | / | i | -4
O=C(NCc1ccncc1)c1ccc(NS(=O)(=O)c2cccc([N+](=O)[O-])c2)cc1 | -14 | / | 5 | 6 | / | 4 | i | -6
COc1ccccc1OCCC(=O)OCC(=O)Nc1ccc2c(c1)OCCO2 | -1 | / | 5 | 0 | / | -16 | / | 2
CCN(C(=O)C1CCCN(c2nc(-c3ccc(OC)cc3)no2)C1)c1ccccc1F (stereo unspecified) | -13 | -2 | 2 | -9 | -2 | -7 | i | -4
Cc1ccc(C(=O)OCC(=O)N2CCOCC2)cc1 | -55 | 24 | -1 | 0 | -15 | -3 | i | -4
CCn1c(SCc2nc3scc(-c4ccccc4)c3c(=O)[nH]2)nnc1-c1cccs1 | 14 | 19 | 4 | -12 | 11 | / | i | 5
COc1ccc(NS(=O)(=O)c2ccc(C(=O)Nc3c(C)n(C)n(-c4ccccc4)c3=O)cc2)cc1 | 4 | / | 3 | 2 | / | -5 | / | -14
Cc1ccc(NC(=O)COC(=O)Cc2csc(-c3cccc(F)c3)n2)cc1C | / | 1 | 1 | 7 | 2 | -5 | i | 10

Random excerpt: 6 entries already listed
SMILES | HIV Env fusion | PABP FP inh | MT1-MMP act inh | MT1-MMP act inh RFP | eIF4H inh | Yeast UUG start | Rce1 inhib | CSC inhib
COCCN1CN(S(=O)(=O)c2cccc(Cl)c2)c2nc3ccccc3nc21 | -18 | 14 | -1 | 2 | -21 | -6 | i | -12
CN1CCN(c2ccc(-c3ccnn3C(=O)Nc3cccc(C(F)(F)F)c3)cc2)CC1 | 3 | 10 | 2 | 2 | -14 | / | i | 19
COc1cc(/C=N/NC(=O)c2cccnc2)ccc1OC(=O)c1ccco1 | -3 | 0 | 5 | -5 | -8 | -1 | i | 6
CCCOc1ccc(-c2c(C(=O)N/N=C/C3CCCCC3)nnn2-c2nonc2N)cc1 | -10 | -16 | 0 | 3 | 3 | -14 | i | -7
COc1ccc(NS(=O)(=O)c2ccc(C(=O)Nc3c(C)n(C)n(-c4ccccc4)c3=O)cc2)cc1 | 4 | / | 3 | 2 | / | -5 | / | -14
Cn1c(=O)n(C/C=C/c2ccccc2)c(=O)c2c1nc1n2CCCN1Cc1ccccc1 | 31 | -6 | 11 | -10 | -2 | -7 | i | -7

The results go on.
SMILES | HIV Env fusion | PABP FP inh | MT1-MMP act inh | MT1-MMP act inh RFP | eIF4H inh | Yeast UUG start | Rce1 inhib | CSC inhib
CCCOc1ccc(/C(O)=C2/C(=O)C(=O)N(CCCn3ccnc3)C2c2cccs2)cc1 (stereo unspecified) | -23 | -5 | 0 | 3 | -10 | / | i | -1
COC(=O)c1ccc(C(=O)N2CCCC(CNC(=O)c3ccc(F)cc3)C2)cc1 (stereo unspecified) | -1 | 12 | -2 | -3 | -2 | -5 | i | -2
CCOc1ccc(-c2nc(-c3ccccc3)no2)cc1OCC | -36 | 3 | -3 | -1 | -6 | -6 | i | 20
CCN(CC(=O)Nc1cc(Cl)ccc1C)C(=O)CC1CCCC1 | 4 | / | 4 | 1 | / | -9 | / | -21
COc1ccccc1CNC(=O)COC(=O)c1ccccc1-c1ccccc1 | / | / | 2 | -5 | / | -13 | i | -5
COc1ccc2c(C)cc(=O)oc2c1 | -68 | / | 1 | 5 | / | -13 | / | /
COc1ccc(CNC(=O)COC(=O)/C=C/c2cccc(Cl)c2)cc1 | -13 | / | 2 | 1 | / | -11 | / | -6
CC(C)(C)N1C(=O)c2ccc(C(=O)Nc3cc(C(=O)O)cc(C(=O)O)c3)cc2C1=O | -22 | 2 | -2 | -3 | 1 | -11 | i | -14
Cc1cccc(N/N=C/c2ccncc2)c1 | -62 | 10 | 0 | 1 | -6 | -6 | i | 16
Cn1c(SCC(=O)N2CCCCC2)nc2c([nH]c3ccccc32)c1=O | 23 | 12 | 4 | -3 | -1 | -2 | i | -15
CC(C)NC(=O)[C@H]1N2C(=O)c3ccccc3C2SC1(C)C (stereo partly specified) | -2 | -8 | 1 | 4 | 1 | -7 | i | -11
Cc1ccc(S(=O)(=O)NCC(=O)OC2CCOC2=O)cc1 (stereo unspecified) | / | 1 | -2 | 3 | -2 | -12 | i | -3
CCNC(=O)c1ccc(NC(=O)CC2SC(N3CCCC3)=NC2=O)cc1 (stereo unspecified) | 0 | / | 3 | 0 | / | / | i | -17
COc1cc(C(=S)N2CCOCC2)ccc1OS(=O)(=O)c1ccc(C)cc1 | 8 | -11 | 2 | -6 | -13 | -12 | / | -8
Cc1ccc(S(=O)(=O)N2CCN(C(=O)CC(C)C)CC2)cc1 | -14 | -6 | -1 | -5 | -6 | / | i | -6
CC(C)(C)/C(O)=C(/C#N)c1nc2ccccc2[nH]1 | 9 | 2 | -17 | -16 | 7 | -3 | i | -15
O=S(=O)(/N=C(/Nc1cccnc1)c1ccccc1)c1ccc(F)cc1F | / | / | 1 | 5 | / | -17 | / | -9
NC(=O)Nc1cccc2ccccc12 | -27 | 2 | -4 | -1 | -4 | / | i | /
Cc1cc(C)n2cc(CSc3nc4cc(Cl)ccc4o3)nc2n1 | / | 20 | 9 | -1 | 10 | -20 | i | 5
CC(C)N(Cc1ccccc1)C(=O)COC(=O)c1ccc2c(c1)OCCO2 | -11 | 0 | -6 | -2 | -10 | 10 | / | 9
COc1cc(C(=O)N(Cc2ccccc2)c2cccc(C)c2)ccc1OC(F)F | / | 3 | -6 | -6 | -2 | 0 | i | 4
O=C(COc1ccc(C(=O)NCCN2CCOCC2)cc1)Nc1cccc(C(F)(F)F)c1 | / | / | 1 | -3 | / | 23 | i | 10
Brc1ccc(-c2csc3ncnc(-n4nnc5ccccc54)c23)cc1 | 13 | 2 | 0 | -1 | 0 | -12 | i | 31
Cc1ccccc1S(=O)(=O)Cc1ccc(C(=O)NCCCN2CCC(C)CC2)o1 | 2 | 8 | -1 | 1 | 21 | / | i | 3
O=C(NCCCNC(=O)c1c(Cl)cccc1Cl)c1c(Cl)cccc1Cl | 9 | / | 1 | -1 | / | / | i | -6
COc1ccc(-n2nc(C(=O)NCC(=O)NCC3COc4ccccc4O3)c3ccccc3c2=O)c(OC)c1 (stereo unspecified) | 15 | 8 | 0 | -3 | -4 | / | i | 5
COC(=O)c1nn(Cc2ccccc2)c(=O)c2ccccc12 | -9 | -7 | 2 | 0 | 0 | -18 | i | -10
CC(C)CNC(=O)NC(=O)COC(=O)c1cc(F)cc(F)c1 | 16 | 5 | -1 | 1 | 6 | / | i | 2

Source: PubChem BioAssay (several laboratories)
